Screening results (PubChem)
TRPML1 blocker = blocks the human TRPML1 channel; AID 624415; actives 0.02% (n = 390,000); TRPML1-inducible cells, Ca2+ dye fluorescence, FDSS; hits give low values; inhibition of EC80 agonist-evoked calcium signal; Q9GZU1; activity change, negative = inhibition, % (test concentration not listed); in the data active means activity change below about -50%; inconclusive means about -30% to -50%; inactive means above about -30%;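 also: stimulus is agonist 54-4 at its EC80 concentration; % is scaled to controls: 0 for no effect and ±100 for the full control effect; compound concentration not given in the record; the text of the record puts the active cut at -80%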
Target sequence (Q9GZU1 whole entry, looked up): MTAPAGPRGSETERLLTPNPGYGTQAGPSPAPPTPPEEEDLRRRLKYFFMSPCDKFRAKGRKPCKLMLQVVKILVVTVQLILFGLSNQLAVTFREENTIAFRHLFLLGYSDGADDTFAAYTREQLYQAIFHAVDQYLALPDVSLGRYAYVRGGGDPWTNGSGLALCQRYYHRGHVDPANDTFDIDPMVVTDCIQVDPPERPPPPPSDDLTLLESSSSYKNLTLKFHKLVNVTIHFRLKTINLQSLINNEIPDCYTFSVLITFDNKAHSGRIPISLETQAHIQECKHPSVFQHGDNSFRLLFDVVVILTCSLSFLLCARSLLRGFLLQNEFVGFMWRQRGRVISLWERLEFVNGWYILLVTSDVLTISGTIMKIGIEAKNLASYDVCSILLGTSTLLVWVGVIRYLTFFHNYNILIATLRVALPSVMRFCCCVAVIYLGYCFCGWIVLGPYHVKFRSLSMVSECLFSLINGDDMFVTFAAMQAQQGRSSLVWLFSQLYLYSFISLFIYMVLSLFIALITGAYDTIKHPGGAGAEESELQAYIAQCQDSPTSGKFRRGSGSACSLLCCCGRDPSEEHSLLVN
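TRPML1-DL cells, Tet-induced overnight (~16 h, 37 °C) at 1,500 cells/well, were loaded with Ca8 no-wash dye plus quencher for 45-90 min at room temperature. Compounds were pinned during FDSS kinetic reading; agonist 54-4 at EC80 (4 uM final) then added.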
TRPV1 potentiator = potentiators of human vanilloid receptor 1 (TRPV1); Q8NER1; TRPV1-expressing cells, Fluo-8 calcium influx, capsaicin EC20 potentiation; host cell line not named in the record; control for the full effect not named in the record; potentiation, % at 8.33 µM; actives 0.02% (n = 320,000); AID 540277; active means potentiation above 80%; inconclusive means 30% to 80%; inactive means below 30%; also: 0% is about no effect
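Cells expressing TRPV1 were dye-loaded with Fluo-8 and read kinetically: 10 s baseline, 3 min after compound (agonist portion), then 2 min after EC20 capsaicin (allosteric enhancer portion). Calcium-bound dye fluorescence at 480/520 nm.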
TRPML1 agonist = human mucolipin-1 channel agonism; TRPML1-expressing cells, Ca2+ dye fluorescence, FDSS; host cell line not named in the record; reference of the full effect not given here; activation, % (concentration not given with the values); actives 0.12% (n = 410,000); AID 624414; in the data active = activation above about 50%; inconclusive = about 30% to 50%; inactive = below about 30%; also: 0% is about no effect; the text of the record puts the active cut at 80%
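Tet-induced TRPML1-DL cells, 1,500 per well, cultured overnight, were loaded with a no-wash Ca2+ dye for 45–90 min. Calcium fluorescence was recorded on the FDSS for 110 s after compound addition, before the EC80 agonist (4 uM 54-4) was added.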
D2 PAM = human D2 receptor positive allosteric modulation; actives 0.23% (n = 360,000); AID 624464; potentiation, % (concentration not given with the values); DiscoveRx D2 beta-arrestin cells, luminescence, 90 min; 100% = 57 uM dopamine signal; P14416; active = potentiation of 50% or more; inconclusive = 30% to 50%; inactive = 30% or less;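 also: compound concentration not given in the record; tested on top of an EC20 dose of dopamine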
Target sequence (P14416 whole entry, looked up): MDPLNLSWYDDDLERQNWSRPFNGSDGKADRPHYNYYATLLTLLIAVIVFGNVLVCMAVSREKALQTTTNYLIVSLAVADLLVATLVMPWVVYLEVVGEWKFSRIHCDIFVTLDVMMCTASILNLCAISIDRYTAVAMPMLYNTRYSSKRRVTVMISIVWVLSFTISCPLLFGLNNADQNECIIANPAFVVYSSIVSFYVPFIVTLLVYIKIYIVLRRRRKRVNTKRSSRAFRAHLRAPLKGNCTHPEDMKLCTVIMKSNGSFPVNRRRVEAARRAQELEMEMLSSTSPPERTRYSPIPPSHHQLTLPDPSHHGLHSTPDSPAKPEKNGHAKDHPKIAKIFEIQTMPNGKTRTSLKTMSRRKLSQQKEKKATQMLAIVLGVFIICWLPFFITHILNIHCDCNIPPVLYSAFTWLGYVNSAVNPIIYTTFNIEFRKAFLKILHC
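D2 cells co-treated with compound plus 50 nM dopamine (EC20) for 90 min at 37 deg C to detect potentiation. Beta-arrestin recruitment was read as enzyme-fragment luminescence after 1 h at ambient temperature. Full response was set by 57 uM dopamine.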
CtBP-E1A blk = CtBP/E1A binding inhibition. activity change, % (no concentration beside the values). actives 0.49% (n = 340,000). AlphaScreen GST-E1A/His-CtBP binding, 1536-well; hits give low values; control for the full effect not named in the record; in the data active means activity change below about -65%; inconclusive means about -30% to -65%; inactive means above about -30%; also: % is scaled to controls: 0 for no effect and ±100 for the full control effect; compound concentration not given in the record
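AlphaScreen with 125 nM GST-E1A and 125 nM His-CtBP (5X stocks) in Tris pH 8.0, 300 mM NaCl, BSA, Tween 20, TCEP. Compounds preincubated 2 h at 37 deg C, then glutathione donor/nickel acceptor beads added for 1 h at 37 deg C in dark.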
Six1-Eya2 inh = blocks human Six1 binding to Eya2; AlphaScreen GST-Six1/His-Eya2 binding, biochemical; hits give low values; control for the full effect not named in the record; activity change, % (no concentration beside the values); actives 0.56% (n = 360,000); in the data active = activity change below about -65%; inconclusive = about -30% to -65%; inactive = above about -30%; also: % is scaled to controls: 0 for no effect and ±100 for the full control effect; compound concentration not given in the record
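Six1/Eya2 binding was read as AlphaScreen signal after compounds were pinned into GST-Six1 plus His-tagged Eya2 (5X stock 250/500 nM) in pH 8.0 Tris/NaCl/TCEP buffer, beads added, then incubated 1 h, 37 C, dark.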
* = called active by the depositor; ? = inconclusive; · = no result given; & = joins results of further samples. Not all compounds are listed. The share of hits here may be higher or lower than overall.

# | Structure | TRPML1 blocker | TRPV1 potentiator | TRPML1 agonist
1 | CCOc1ccccc1Oc1coc2cc(OC(=O)N(C)C)ccc2c1=O | 6 | 2 | -0.2
2 | O=c1[nH]c(=O)n(-c2cccc3ccccc23)c(O)c1/C=N/N1CCCCC1 | -1 | 4 | 0.1
3 | O=C1NC(=O)C2(Cc3ccccc3N3CCCC32)C(=O)N1c1cccc(Cl)c1 (stereo not drawn) | -3 | -14 | -0.9
4 | COc1ccc(CN2CCN(C(=O)Cc3ccccc3)CC2)cc1OC | 21 | · | -0.2
5 | CSc1nc(N2CCN(C)CC2)c2ccccc2n1 | 6 | 12 | -0.3
6 | Cc1ccccc1-n1c(-c2ccc([N+](=O)[O-])cc2)nc2ccccc2c1=O | 28 | -8 | 3.7
7 | Fc1ccccc1CN1Cc2ccccc2-n2nncc2C1 | 8 | · | -0.7
8 | CSc1ccc(CN2CCN(Cc3ccccc3Cl)CC2)cc1 | 5 | 12 | 1.6

# | D2 PAM | CtBP-E1A blk | Six1-Eya2 inh
1 | -4 | · | -8
2 | -37 | 8 | 1
3 | 4 | -1 | -5
4 | -7 | -2 | -3
5 | -18 | -1 | -1
6 | -5 | 6 | -16
7 | -1 | 0 | 4
8 | -26 | · | -17

Remaining list, next part.
# | Structure | TRPML1 blocker | TRPV1 potentiator | TRPML1 agonist
9 | CCOc1ccc(-n2c(-c3cccs3)nc3ccccc3c2=O)cc1 | 45 | 2 | 1.7
10 | O=C(Cc1ccccc1)N1CCN(Cc2ccccn2)CC1 | 10 | 5 | -0.2
11 | CC(=O)N1N=C(c2c(O)n(C)c(=O)n(C)c2=O)CC1c1ccccc1 (stereo not drawn) | -4 | -7 | -0.1
12 | Cc1cccc(C(O)(C(=O)NNC(=O)CN2CCN(C)CC2)c2cccc(C)c2)c1 | 21 | -9 | -0.2
13 | CCOc1ccc(N2C(=O)NC(=O)/C(=C\c3cc(OC)c(OC)cc3[N+](=O)[O-])C2=O)cc1 | 27 | -5 | 1.8
14 | CSCCC(c1nnnn1Cc1ccccc1)N1CCC2(CC1)C(=O)NCN2c1ccccc1 (stereo not drawn) | · | · | -0.5
15 | COC(=O)C(O)(c1cn(C)c2ccccc12)C(F)(F)F (stereo not drawn) | -1 | -9 | -0.3
16 | CCN(CC)CCCOC(=O)C(OC(C)C)(c1ccccc1)c1ccccc1 | 2 | -19 | 2.1

# | D2 PAM | CtBP-E1A blk | Six1-Eya2 inh
9 | -1 | 2 | 0
10 | -18 | 8 | 3
11 | -11 | 0 | -29
12 | -5 | -7 | 6
13 | -4 | -5 | -12
14 | -8 | -15 | -17
15 | -10 | 0 | -1
16 | -17 | -2 | -4

Record cards, as listed above.
`O=C(Cc1ccccc1)N1CCN(Cc2ccccn2)CC1` as listed: TRPML1 blocker: 10; TRPV1 potentiator: 5; TRPML1 agonist: -0.2; D2 PAM: -18; CtBP-E1A blk: 8; Six1-Eya2 inh: 3
`COc1ccc(CN2CCN(C(=O)Cc3ccccc3)CC2)cc1OC` as listed: TRPML1 blocker: 21; TRPV1 potentiator: ·; TRPML1 agonist: -0.2; D2 PAM: -7; CtBP-E1A blk: -2; Six1-Eya2 inh: -3

Next part
# | Structure | TRPML1 blocker | TRPV1 potentiator | TRPML1 agonist
17 | Cc1cc(OCC(=O)OC(C)(C)C)c2c3c(c(=O)oc2c1)CCC3 | 0 | -3 | 0.5
18 | COc1ccc(C(c2nnnn2-c2ccc3c(c2)OCCO3)N2CCC3(CC2)C(=O)NCN3c2ccccc2)cc1 (stereo not drawn) | · | · | -0.3
19 | COc1cc(C2c3cc4c(cc3CC3COC(=O)C32)OCO4)cc(OC)c1OC (stereo not drawn) | · | · | ·
20 | CCCCN=C[C@]12CCC(O)CC1(O)CCC1[C@@H]2CC[C@]2(C)[C@H](C3C=CC(=O)O3)CCC12O (stereo partly drawn) | -11 | 8 | 0.0
21 | COC(=O)c1cc2c(s1)=NC=NP=2(N1CCOCC1)N1CCOCC1 | 19&-13 | -1 | 0.5&0.4
22 | O=c1[nH]c(=S)[nH]c(O)c1N=Nc1ccc(SC(F)F)cc1 | 26 | 4 | -0.2
23 | Cc1nc2cc(-c3cccc(F)c3)nn2c(C)c1CCC(=O)N1CCC2(CC1)OCCO2 | -1 | 4 | -0.8
24 | CN1CN(c2cccc([N+](=O)[O-])c2)CN=C1N[N+](=O)[O-] | -3 | 6 | -0.2

# | D2 PAM | CtBP-E1A blk | Six1-Eya2 inh
17 | 5 | 0 | 14
18 | -3 | -19 | -24
19 | -18 | -2 | -2
20 | -2 | -23 | -9
21 | -1&-10 | 5&-2 | 2&0
22 | -15 | -13 | -23
23 | 0 | -1 | 0
24 | -11 | · | 8

(cont.)
# | Structure | TRPML1 blocker | TRPV1 potentiator | TRPML1 agonist
25 | CN1CCN(c2cccc3c2C(=O)c2ccccc2C3=O)CC1 | -6 | -3 | 0.5
26 | CC1(C)C(C(=O)NN2C(=O)c3ccccc3C2=O)C1(C)C | 7 | 5 | -0.2
27 | O=C(Nc1ccc2ccccc2c1)c1nn(C23CC4CC(CC(C4)C2)C3)cc1Br | 42 | 18 | 0.7
28 | CCCC1COC(Cn2cncn2)(c2ccc(Cl)cc2Cl)O1 (stereo not drawn) | 16 | 10 | 6.0
29 | CN(C)C(=O)O/N=C(\N)COc1ccc(C(C)(C)C)cc1 | 15 | 8 | 0.2
30 | N#Cc1cc2c(nc1SCC(=O)Nc1cc(Cl)ccc1Cl)C1CCN2CC1 | 7 | 3 | -0.1
31 | O=c1c2ccccc2nc(Cc2ccccc2)n1-c1ccccc1O | 2 | · | -0.2
32 | CC(C)C1(C)N=C(c2nc3ccccc3cc2C(=O)O)NC1=O (stereo not drawn) | -7 | 7 | 0.3

# | D2 PAM | CtBP-E1A blk | Six1-Eya2 inh
25 | -14 | ? | ?
26 | -16 | -1 | 7
27 | -9 | 2 | -1
28 | -8 | -4 | 0
29 | 14 | · | 5
30 | -11 | 6 | 1
31 | 2 | -2 | 7
32 | -3 | 10 | 4

Carrying on.
# | Structure | TRPML1 blocker | TRPV1 potentiator | TRPML1 agonist
33 | O=C1NC(=O)N(c2ccc(F)cc2)C(=O)/C1=C/c1ccc2c(c1)CCCN2Cc1ccccc1 | 12 | -1 | 3.0
34 | CCN(CCO)c1ccc(N=Cc2c(O)n(C)c(=S)[nH]c2=O)cc1 | 20 | ? | 12
35 | Cn1cnnc1Sc1cc(N2CCNCC2)ccc1[N+](=O)[O-] | 4 | -14 | 0.6
36 | Cc1ccc2[nH]c3c(c2c1)CN(C(=O)CN1C[C@H]2C[C@@H](C1)c1cccc(=O)n1C2)CC3 | · | -5 | ·
37 | CCOc1ccc([N+](=O)[O-])cc1CNCCc1ccccc1 | 5 | 19 | -0.3
38 | c1cc2c(cc1[C@H]1OC[C@H]3[C@@H]1CO[C@H]3c1ccc3c(c1)OCO3)OCO2 | -2 | · | 1.4
39 | COCc1cc(OC(=O)N(C)C)nc2c1c(C)nn2C | 8 | -11 | 0.0
40 | CCCCn1c(O)c(/C(CC)=N/N2CCCCC2c2cccnc2)c(=O)[nH]c1=S (stereo not drawn) | 23 | -2 | 0.4

# | D2 PAM | CtBP-E1A blk | Six1-Eya2 inh
33 | -11 | 1 | -10
34 | 22 | 0 | -9
35 | -5 | 3 | 7
36 | -29 | 26 | 16
37 | -11 | -4 | -9
38 | -5 | 0 | -1
39 | -5 | -5 | -7
40 | -2 | -2 | -16

Carrying on:
# | Structure | TRPML1 blocker | TRPV1 potentiator | TRPML1 agonist
41 | Cc1ccc(CCN2CC(C(=O)N3CCC4(CC3)OCCO4)CC2=O)cc1 (stereo not drawn) | -19 | 4 | -0.2
42 | COc1ccc(-c2nc3ccccc3c(=O)n2-c2ccc(OC)cc2)cc1 | -10 | -14 | 0.3
43 | CCN1CCN(Cc2ccc(OC(F)(F)F)cc2)CC1 | -8 | -1 | -0.3
44 | O=C(c1cc(Cl)cc(Cl)c1)N1Cc2ccccc2-n2nncc2C1 | 11 | · | 0.7
45 | ClC(Cl)=C(c1ccc(Cl)cc1)c1ccc(Cl)cc1 | -3 | 5 | 1.6
46 | CS(=O)(=O)N1CCCC(C(=O)N2CCC3(CC2)OCCO3)C1 (stereo not drawn) | 5 | 10 | -0.5
47 | O=C(Cc1cccs1)N1Cc2ccccc2-n2nncc2C1 | -1 | · | -0.2
48 | C=CCn1c(O)c(C(C)=NC2CC2)c(=O)[nH]c1=O | 45 | 3 | -0.1

# | D2 PAM | CtBP-E1A blk | Six1-Eya2 inh
41 | -10 | 2 | 12
42 | -3 | 0 | -7
43 | -9 | 9 | 5
44 | -1 | -2 | 3
45 | -11 | 22 | 22
46 | 0 | 6 | 5
47 | 5 | 1 | -15
48 | -7 | 3 | -7

Following part
# | Structure | TRPML1 blocker | TRPV1 potentiator | TRPML1 agonist
49 | CCCCN1C(=N)C(CC)(CC)C(=O)NC1=O | 1 | 0 | -0.1
50 | CN1CCC2(CC1)C(C#N)=C(N)NC(S)=C2C#N | 15&-4 | 8&-5 | 5.9&7.1
51 | COc1cc(OC)cc(C(=O)NC(=S)N2C[C@H]3C[C@H](C2)c2cccc(=O)n2C3)c1 | · | 26 | ·
52 | CCC(=NCc1ccco1)c1c(O)n(-c2ccc(Cl)cc2)c(=O)[nH]c1=O | -5 | 15 | -0.6
53 | NC(=O)c1cn(C2OC(CO)C(O)C2O)c2ncnc(N)c12 (stereo not drawn) | -18 | 2 | -0.4
54 | CCCn1cc(CN2CCCC(C(=O)c3cccc(OC)c3)C2)c(C)n1 (stereo not drawn) | -3 | -6 | 0.0
55 | C/C(=N\NC(=O)c1ccncc1)c1c(O)[nH]c(=O)[nH]c1=O | -5 | · | 0.3
56 | Cc1cc(S(=O)(=O)NCc2ccccc2)ccc1OCC(=O)N1CCN(C)CC1 | 6 | -4 | 0.7

# | D2 PAM | CtBP-E1A blk | Six1-Eya2 inh
49 | -6 | -5 | 10
50 | -18&-4 | ? | ?
51 | -37 | 1 | 4
52 | -9 | -1 | 13
53 | -15&-42 | 3&0 | 4&0
54 | -5 | 7 | -3
55 | -6 | 5 | 4
56 | -8 | -9 | -1

Next part
# | Structure | TRPML1 blocker | TRPV1 potentiator | TRPML1 agonist
57 | CCOC(=O)c1ccc(-[n+]2c(-c3ccccc3)cc(-c3ccccc3)cc2-c2ccccc2)cc1 | -16 | 4 | -0.4
58 | COC(=O)C1=C(c2cccc(OC)c2OC)C[C@@H]2CC[C@H]1N2C(=O)N1CCCC1 | 28 | · | -0.6
59 | COc1ccc(-n2c(O)c(C(C)=NC3CC3)c(=O)[nH]c2=O)cc1 | -7 | 5 | -0.4
60 | Nc1cccc(N=Cc2c(O)n(Cc3ccc(F)cc3)c(=O)[nH]c2=O)c1 | -9 | -31 | -0.3
61 | Cc1ccc(-n2c(O)c(C=NCCN3CCNCC3)c(=O)[nH]c2=S)cc1 | -9 | 0 | 3.9
62 | CC(=O)Nc1ccccc1C(=O)OCC(=O)c1ccccc1Cl | -11 | 2 | 2.2

# | D2 PAM | CtBP-E1A blk | Six1-Eya2 inh
57 | 6 | -27 | -9
58 | -1 | 2 | -4
59 | 5 | 4 | -1
60 | · | -8 | -1
61 | -5 | · | -3
62 | 9 | -3 | 17
